From PubChem
miR-21 reporter – miR-21 reporter, rising signal | HeLa miR-21 FLuc reporter, luciferase, 48 h | Potency, µM (series often up to 38.3 µM), inactives show at the highest dose reporter change, positive = more light | 340,000 tested, under 10 active; active = well fitted rising curve with a large enough effect; inconclusive = small, poorly fitted or top-dose-only effect; inactive = no such curve, though single readings can be large or run the other way;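 note: % of control where 0% means no effect; miR-21 action dims this reporter so a rising signal means less miR-21 action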
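HeLa cells stably expressing CMV-driven firefly luciferase with a downstream miR-21 binding sequence, endogenously expressing miR-21, were treated with titrations (up to about 40uM final) for 48 hours at 37 degree Celsius. Luciferase luminescence was read after lysis.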
Rango-impB inh – Rango-importin beta binding inhibition; Q14974; Rango CFP/YFP FRET sensor + importin beta, 45 min; Potency, µM (series often up to 92.2 µM), for the others: at the top dose inhibition of complex formation; 340,000 tested, 0.031% active; AID 540263; active = rising FRET ratio curve, often small or poorly fitted; inconclusive = mostly compound fluorescence or quenching in the first reads; inactive = flat curves in all reads;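 note: potency is the fitted concentration of half-maximal effect; 0% = DMSO wells and 100% = buffer wells lacking importin beta; nearly all actives have a fitted effect of over 15% in size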
Target sequence (Q14974 whole entry, looked up): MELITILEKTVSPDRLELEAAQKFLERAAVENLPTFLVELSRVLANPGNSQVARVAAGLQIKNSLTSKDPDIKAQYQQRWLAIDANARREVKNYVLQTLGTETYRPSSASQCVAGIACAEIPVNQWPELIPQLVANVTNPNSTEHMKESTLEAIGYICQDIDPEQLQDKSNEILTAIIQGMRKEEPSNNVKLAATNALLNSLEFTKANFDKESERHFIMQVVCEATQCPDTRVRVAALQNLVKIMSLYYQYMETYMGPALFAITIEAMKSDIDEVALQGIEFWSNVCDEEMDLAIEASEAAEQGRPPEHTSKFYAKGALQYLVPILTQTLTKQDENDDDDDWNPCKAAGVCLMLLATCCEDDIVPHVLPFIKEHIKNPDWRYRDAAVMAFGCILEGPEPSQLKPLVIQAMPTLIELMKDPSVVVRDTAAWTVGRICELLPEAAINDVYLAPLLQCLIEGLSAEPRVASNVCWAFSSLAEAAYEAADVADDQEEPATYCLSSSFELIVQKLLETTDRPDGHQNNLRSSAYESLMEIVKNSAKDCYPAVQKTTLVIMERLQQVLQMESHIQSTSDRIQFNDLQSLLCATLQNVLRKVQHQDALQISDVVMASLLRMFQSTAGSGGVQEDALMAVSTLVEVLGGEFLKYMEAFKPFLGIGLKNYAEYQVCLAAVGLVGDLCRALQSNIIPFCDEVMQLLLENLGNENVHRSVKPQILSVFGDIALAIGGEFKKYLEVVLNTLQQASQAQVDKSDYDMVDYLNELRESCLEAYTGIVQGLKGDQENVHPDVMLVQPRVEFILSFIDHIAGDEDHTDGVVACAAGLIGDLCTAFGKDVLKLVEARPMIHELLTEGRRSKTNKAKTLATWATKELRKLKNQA
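Inhibition scored from the CFP 486 nm/YFP 530 nm FRET ratio 45 min after adding 0.125 microM importin beta to 50 nM Rango biosensor preincubated 5 min with compound (room temperature, PBS with DTT, Tween-20, BSA). No-importin wells as positive control.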
Rango release inh – inhibitors of RanGTP-induced Rango-importin beta complex dissociation | Biochemical FRET Rango-importin beta, RanGTP-induced dissociation | AID 540253 | O95149+P62826 | 340,000 tested, 0.071% active | Potency, µM (highest dose often 46.1 µM), for inactives: at the top dose activity change, negative = inhibition; active means falling FRET ratio curve, often poorly fitted, with flat reads before Ran was added; inconclusive means other falling curves, or compound fluorescence or quenching; inactive means flat or rising ratio curve;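 note: potency is the fitted concentration of half-maximal effect; % of control where 0% means no effect; nearly all actives have a fitted effect of over 45% in size; -100% = wells without RanGTP and RCC1; the record marks most hits as doubtful in a second field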
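Rango (0.1 uM)–importin beta (0.25 uM) complex; RanGTP-RCC1 trigger; 45 min RT; CFP/YFP FRET read.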
GLA inh pH 4.5 – blocks human alpha-galactosidase A at pH 4.5; activity change, negative = inhibition, % at 105 µM; 230,000 tested, under 10 active; purified enzyme, 4-MU-alpha-Gal fluorescence, pH 4.5; inconclusive = small, poorly fitted or top-dose-only inhibition, or a rising curve; inactive = flat fitted curve, though single readings scatter; no compound was filed as active;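 note: 0% = full activity with enzyme and -100% = basal without enzyme; dose as in the result columns while the protocol names 77 µM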
* marks the source's active call; other numbers are inactive results; ? = inconclusive; / = no result given.

canonical_smiles | miR-21 reporter | Rango-impB inh | Rango release inh | GLA inh pH 4.5
O=C1CC(N2CCN(C3CC(=O)N(CCc4ccccc4)C3=O)CC2)C(=O)N1CCc1ccccc1 (centres undefined) | 0.5% | 0.5% | -3.1% | 5.5
COc1ccc(C(=O)N/C(=C\c2cn(C)c3ccccc23)C(=O)OCC(C)C)cc1 | -10.4% | 0.8% | -3.0% | -3.3
CCCS(=O)(=O)N1CCCC(C(=O)N2CCOCC2)C1 (centres undefined) | -2.3% | 2.1% | 16.7% | 4.7
Cc1nc(CCNC(=O)CC2C(=O)NCCN2Cc2ccoc2)nc2c1CCCC2 (centres undefined) | -0.3% | 1.0% | -15.4% | -3.2
O=c1ccc(Oc2nc(N3CCOCC3)nc(N3CCOCC3)n2)n[nH]1 | -2.7% | 0.3% | 1.8% | 5.8
CCOc1ccc2[nH]c(S(=O)(=O)CC)nc2c1Cl | -10.0% | 1.1% | 12.2% | 9.9
CC(=O)c1c(N)[nH]c(-c2ccccc2)nc1=S | -4.9% | 2.1% | -24.8% | 3.2
CCOC(=O)Nc1ccc2c(CN3CCN(S(=O)(=O)c4ccccc4)CC3)cc(=O)oc2c1 | -15.7% | 1.2% | -6.8% | 4.5
Cn1c(SCC(=O)c2ccc(F)cc2)nnc1-c1ccccc1N | -24.3% | 0.9% | -11.0% | 0.4
O=C(NC1CCCC1)c1ccc2c(c1)N(Cc1ccccc1)CCS2 | 0.2% | ? | -2.8% | /
COC(=O)CCC(=O)Nc1ccc(N=Nc2ccccc2)cc1 | -16.5% | 1.9% | 14.4% | -9.0
Clc1ncnc2c1oc1ccccc12 | -48.4% | -0.2% | -2.0% | 2.5
COCc1cc([C@@H]2C[C@H]3CN(c4ccccc4)C(=O)[C@]34CCCN24)ccc1OC | -2.5% | -0.2% | 0.9% | 7.3
CCCNC(=O)CSc1nnc(-c2ccco2)n1C | -4.9% | -3.8% | 5.0% | 1.0
Cc1cc(Cl)ccc1NC(=O)CCN1C(=O)C2CCCCC2C1=O (centres undefined) | / | -1.8% | 19.6% | /
CCOCCCNC(=O)C1CCN(c2cc(C)nc3c(-c4ccc(OC)c(OC)c4)c(C)nn23)CC1 | -2.6% | 1.3% | 22.3% | -9.0
CCOC(=O)c1sc(NC(=O)CSc2nnnn2-c2ccc(C)c(C)c2)nc1C | -4.0% | -0.6% | 3.1% | -11.8
Cc1cc(C)n(CC(=O)N2CCCC(N3CCN(c4cccc(C(F)(F)F)c4)CC3)C2)n1 (centres undefined) | 6.8% | 0.5% | -1.2% | /
CC(CNC(=O)C1CCCN(S(=O)(=O)N2CCOCC2)C1)c1ccccc1 (centres undefined) | -0.3% | -0.4% | -2.6% | /
Cc1cc(C=O)c(C)n1-c1ccc2c(c1)OCO2 | -8.4% | 0.1% | 0.1% | 6.0
CCCOc1cc(C)nc(-c2ccccc2O)n1 | -7.8% | -1.6% | 12.1% | -3.1
COc1ccccc1NS(=O)(=O)c1cc2c(cc1C)NC(=O)CO2 | -3.9% | 4.8% | -20.4% | /
Cc1cccc(OCc2nnc(SCC(=O)N(C(C)C)C(C)C)n2Cc2ccco2)c1C | -5.7% | -1.7% | -16.4% | 0.9
CC(=O)Nc1nc2cccc([N+](=O)[O-])c2s1 | -2.9% | 0.4% | -2.9% | 2.5
COc1ccc(S(=O)(=O)Nc2cccc(S(=O)(=O)N3CCCCCC3)c2)cc1 | -11.9% | -0.7% | -1.1% | -1.9
O=C(NNc1ccc([N+](=O)[O-])cc1)C1CC1c1ccccc1 (centres undefined) | -3.0% | -1.5% | 8.2% | -7.9
Cc1nc2cc(NC(=O)CCS(=O)(=O)c3ccccc3)ccc2s1 | -51.8% | -3.5% | -5.9% | 3.1
CCc1ccc(N2CC(C(=O)NC3=NCCS3)CC2=O)cc1 (centres undefined) | -9.4% | 0.6% | -22.4% | 3.9
CN(CCCNC(=O)CSc1cc(=O)n(C)c2ccc(Cl)cc12)Cc1ccccc1 | 7.4% | -2.3% | -8.3% | -2.6
COC(=O)[C@]1(C)N[C@H](CN(C)C(C)=O)[C@@H]2C(=O)N(C)C(=O)[C@@H]21 | / | ? | 5.8% | /
COC(=O)c1ccc2c(c1)N(Cc1ccccc1F)C(=O)c1ccccc1S2=O (centres undefined) | -13.8% | 2.7% | 8.7% | 18.4
CCCC(=O)N1c2ccccc2C(=C2SC(C(=O)OC)=C(C(=O)OC)S2)C(=S)C1(C)C | -12.3% | 2.5% | -5.0% | -6.3
CC(C)OCCCNC(=S)N1CCC(C(=O)c2ccc(Cl)cc2)CC1 | 10.6% | 0.9% | 17.2% | /
O=C(O)c1cc(-c2cccnc2)nn1-c1ccccn1 | 0.7% | 0.1% | -23.6% | 3.1
CC(=O)c1cccc(S(=O)(=O)N(Cc2cc3cc4c(cc3[nH]c2=O)OCCO4)CC2CCCO2)c1 (centres undefined) | -7.1% | -0.4% | 16.6% | -8.7
O=c1sc2ccccc2c(N2CCOCC2)c1[N+](=O)[O-] | 2.0% | 0.0% | -1.7% | /
Cc1cc(Oc2ccccc2)nc(SCC(N)=O)n1 | -6.4% | -0.9% | 17.9% | 3.0
Cc1cc(NC(=O)Nc2cccc([N+](=O)[O-])c2)no1 | 1.7% | 8.5% | ? | 3.7
Cc1cccc(NC(=O)c2ccc(Cl)nc2)n1 | -24.5% | -0.6% | -2.9% | /
CCOC(=O)N1CC=C2C(C#N)=C(N)C(C#N)(C#N)[C@H](c3ccc(OCC)c(OCC)c3)[C@H]2C1 | -18.4% | ? | -13.1% | -4.9
COc1cccc(OCCNC(=O)c2cc([N+](=O)[O-])cc([N+](=O)[O-])c2)c1 | 0.1% | -5.2% | -4.1% | 1.7
CC(C)(C)OC(=O)[C@H](Cc1ccccc1)NC(=O)c1nc[nH]c1C(=O)NC1CCN(C(=O)OC(C)(C)C)CC1 | 7.7% | 6.6% | -2.4% | -23.3
CCS(=O)(=O)N1CCC(C(=O)NCc2cccnc2)CC1 | -6.5% | -2.7% | ? | -5.4
O=C(CNCc1ccccc1Cl)Nc1cc(S(=O)(=O)N2CCOCC2)ccc1Cl | / | 1.1% | 0.4% | /
CN(c1cccc(NS(=O)(=O)c2cccc([N+](=O)[O-])c2)c1)S(C)(=O)=O | 3.5% | 1.9% | -17.2% | 1.7
COc1cc(/C=N/Nc2ccccc2[N+](=O)[O-])ccc1OC(=O)c1ccccc1F | -43.3% | 1.6% | -8.4% | 2.8
Clc1nnc2c3ccccc3ccn12 | / | 1.9% | -20.9% | /
O=C(c1cc(COc2c(F)cccc2F)on1)N1CCC(c2ccccc2F)C1 (centres undefined) | -59.5% | -2.3% | -19.4% | 4.1
O=C(COC(=O)C1(c2ccc(Cl)cc2)CCCC1)Nc1ncc(C(F)(F)F)cc1Cl | 0.4% | -2.3% | -1.2% | -16.4
CC1(C)CC(=O)c2c(Cc3ccccc3)noc2C1 | -4.6% | 1.8% | -1.5% | -1.2
CCC(C)NC(=O)c1cc(-c2ccccc2O)on1 (centres undefined) | -55.5% | 1.1% | 14.3% | -3.9
Cc1nc(Cl)sc1C(=O)O | 0.4% | -0.3% | 2.4% | -1.5
Cc1ccc(NC(=O)CSCc2cc(=O)n3ccsc3n2)cc1 | -2.4% | -1.9% | -4.7% | /
CCN(CC)Cc1c(O)ccc2c(=O)c(-c3ccccc3)coc12 | -40.2% | 0.8% | 6.8% | /
CCn1c(SCc2cccc(C(F)(F)F)c2)nnc1-c1ccco1 | -6.6% | 0.7% | 2.3% | -4.0
COc1ccccc1C(=O)COC(=O)c1ccc(N(C)C)cc1 | -71.2% | -2.4% | -5.4% | -6.5

The list continues:
canonical_smiles | miR-21 reporter | Rango-impB inh | Rango release inh | GLA inh pH 4.5
O=C(O)C/C(=C\c1cc(Br)cs1)c1nc2ccccc2o1 | -13.6% | ? | -25.5% | /
Cc1noc(C)c1CSc1ncnc2sc3c(c12)CCCCC3 | 1.9% | 0.4% | -5.3% | -10.3
CC(C)(C)N1NC(=O)Nc2ccccc2C1=O | -1.6% | -3.4% | 0.9% | 3.9
CCOc1ccc(N(CC)S(=O)(=O)c2cccc3nsnc23)cc1 | -4.0% | -1.4% | -7.8% | /
CCCCn1c(N)c(N(CC)C(=O)CSc2nnc(-c3ccco3)n2CC)c(=O)[nH]c1=O | / | 3.8% | 12.0% | /
CCn1c(=S)[nH]c2nc3c(cc2c1=O)CCCC3 | -7.4% | -0.1% | -0.6% | 3.0
Cc1ccc(-n2nc(C)c(/C=N/NC(=O)c3cccnc3)c2Cl)cc1 | -3.1% | -0.5% | -3.1% | 1.9
O=C(Nc1nccs1)c1cc(S(=O)(=O)N2CCCCC2)ccc1Cl | -0.2% | -0.5% | 17.4% | 1.5
C1CCN(C2CCN(c3nc4nonc4nc3N3CCSCC3)CC2)C1 | -2.7% | 2.5% | 20.9% | -6.5
CC(C)CCN1CC(C(=O)NC(C)C)CC1=O (centres undefined) | 0.7% | 2.8% | -7.0% | 0.0
COc1cc2c(cc1NCc1ccc3c(c1)OCO3)oc1ccccc12 | -46.7% | 2.3% | 8.1% | -1.0
Cn1c(=O)oc2cc(S(=O)(=O)NCc3ccc(C(=O)O)cc3)ccc21 | -6.8% | 6.9% | 1.3% | -7.8
CCOC(=O)CSc1nnc(CSc2nc3sc4c(c3c(=O)[nH]2)CCC4)n1C | -8.4% | -0.8% | -20.7% | 8.5
O=C(Cc1cccc(NC(=O)C2CCCN(C(=O)CCc3ccccc3)C2)c1)Nc1cccc(C(=O)N2CCOCC2)c1 (centres undefined) | / | -0.4% | 14.6% | /
COc1ccc(-c2nc(SCC(=O)NC3CCCCC3)n[nH]2)cc1 | 4.1% | 0.0% | 12.7% | /
CCCS(=O)(=O)N1CCCC(C(=O)NCc2ccco2)C1 (centres undefined) | -0.7% | 3.7% | -16.9% | -3.8
Cc1cccc(C(=O)NC2CCN(CC(=O)Nc3ccc4c(c3)OCO4)CC2)c1 | 0.7% | 1.9% | 1.2% | 3.8
CC1=C(C(=O)OCC2CCCO2)C(c2ccccc2Cl)NC(=O)N1 (centres undefined) | -2.8% | -2.4% | 3.4% | 5.0
C[C@@H]1CN([C@H](C)CO)C(=O)c2cccc(NS(=O)(=O)c3cccs3)c2O[C@H]1CN(C)Cc1ccccc1 | / | -1.3% | -13.5% | /
CCOC(=O)c1c(C)[nH]c(C)c1C(=O)COC(=O)c1ccc(Cl)c(S(N)(=O)=O)c1 | -3.2% | ? | 0.4% | 0.2
COc1ccc(N(CC(=O)NCc2ccccc2)C(=O)CCC(=O)Nc2cc(C)ccn2)c(OC)c1 | 0.7% | 1.6% | -5.1% | 4.5
COC(C[C@@H](O)CC(=O)COCc1ccccc1)OC | 3.4% | 1.1% | -4.3% | 6.1
Cc1ccc(NC(=O)C(C)OC(=O)CCC2CCCCC2)cc1 (centres undefined) | / | -3.6% | 0.9% | /
O=C(CNC(=S)N(Cc1ccccc1)Cc1cccnc1)NC1CCCCC1 | -4.6% | 1.2% | 0.5% | 2.8
Cc1nn2c(-c3ccccc3)nnc2c2ccccc12 | -53.6% | -0.2% | 5.0% | -2.3
N#CCCCN1C(=O)C(O)(CC(=O)c2ccc3c(c2)OCCO3)c2ccccc21 (centres undefined) | -5.7% | 0.2% | -0.1% | -8.2
CC(C)NC(=O)NC(=O)CSc1nnc(C(F)(F)F)n1C | -0.3% | -0.2% | -11.1% | 5.2
N#Cc1cc([N+](=O)[O-])cnc1NCC(O)CO (centres undefined) | 0.2% | 0.2% | 5.0% | -11.2
Cc1[nH]c(=O)c(C(=O)/C=C/c2ccccc2F)c2c1CCCC2 | ? | 4.5% | -0.5% | -14.4
CC(=O)NS(=O)(=O)c1ccc(NC(=O)c2ccc(NC(=O)c3cccs3)cc2)cc1 | / | -0.2% | 8.2% | /
CC(C)c1ccc(NC2CCCN(C(=O)c3cccc(N4CCNC4=O)c3)C2)cc1 (centres undefined) | 4.7% | 1.7% | 20.5% | /
COC(=O)C1=CN(C(C)C)C=C(C(=O)OC)C1c1cccc(OC)c1 | -0.8% | ? | ? | ?
O=C(C1=NNCC1c1ccccc1)C1CO1 (centres undefined) | -1.5% | 1.8% | -17.0% | 2.5
Cc1cc(NC(=O)CCC(=O)N(c2cccc(F)c2)C(C(=O)NC2CCCC2)c2ccc(C)o2)no1 (centres undefined) | -3.3% | -0.7% | 10.2% | /

Only part of the results is shown (hit frequency here may not be typical).
